Sa helicase inh: blocks Staphylococcus aureus DNA helicase | purified S. aureus helicase, fluorescence unwinding assay; about half of the hits fall short of the stated cut | inhibition, %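 (tested at about 80 µM)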 | 0.05% of 120,000 active | AID 485395;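 active = both duplicates at 50% or more, or one of them with a favoured structure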;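 note: 0% = mean of negative control wells and 100% = mean of positive control wells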
MgrA-DNA mod: modulators of Staphylococcus aureus MgrA DNA binding | fluorescence polarization | inhibition, %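 (about 10 µg/mL by stock and volumes)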 | 0.13% of 84,000 active;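 active = above 50% in either of two replicates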;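 note: 0% = protein plus DNA without compound and 100% = DNA alone without protein; higher means less MgrA bound to DNA so lower polarization; one replicate is shown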
* marks the source's active call; other numbers are inactive results; x = not tested or not shown; & = joins results of further samples.

Sample of the layout, 6 compounds:
SMILES	Sa helicase inh	MgrA-DNA mod
N#CC(C#N)=CNc1ccccc1N	-141	x
O=C(CN1C(=O)S/C(=C/c2ccccc2)C1=O)Nc1ccccc1Cl	12	x
N#CC(C(=O)c1ccccc1Cl)=C1SCCS1	-3	x
CNC(=O)c1ccccc1COC(=O)c1cccs1	3	-2.2
COc1ccc(Nc2cc(Nc3ccccc3)ncn2)cc1	-28	x
COC(=O)CSc1nnc(COc2cccc3ccccc23)o1	15	-0.8

The listing, previewed entries included:
SMILES	Sa helicase inh	MgrA-DNA mod
N#CC(C#N)=CNc1ccccc1N	-141	x
O=C(CN1C(=O)S/C(=C/c2ccccc2)C1=O)Nc1ccccc1Cl	12	x
N#CC(C(=O)c1ccccc1Cl)=C1SCCS1	-3	x
CNC(=O)c1ccccc1COC(=O)c1cccs1	3	-2.2
COc1ccc(Nc2cc(Nc3ccccc3)ncn2)cc1	-28	x
COC(=O)CSc1nnc(COc2cccc3ccccc23)o1	15	-0.8
O=C(CSc1nncs1)c1cccs1	-5	x
O=S(=O)(Nc1ccc2c(c1)N(S(=O)(=O)c1cccs1)CCC2)c1cccs1	6	x
CCc1ccnc(NS(=O)(=O)c2ccc3c(c2)CCO3)c1	x	-1.5
COc1ccc(OC)c(S(=O)(=O)N2CCn3cccc3C2c2ccc(Cl)cc2Cl)c1 (configuration not stated)	14	x
Cc1ccc(N2CC(=O)N(N)CC2=O)cc1	-2	x
Cc1[nH]c(=S)sc1CC(=O)N(C)Cc1ccccc1Cl	-19	x
Oc1ccccc1C=Nc1cccc(N=Cc2ccccc2O)c1	1	2.0
O=C(CC1S/C(=N\N=C2CCCCC2)NC1=O)Nc1ccc(F)cc1 (configuration not stated)	-3	2.1
Cc1ccc2cc(CCNC(=O)C(C)C)c(=O)[nH]c2c1	0	x
O=C(C1COc2cc(S(=O)(=O)Nc3ccccc3)ccc2O1)N1CCCCC1 (configuration not stated)	20	x
CCOC(=O)C1CCN(C(=O)c2ccc3c(c2)S(=O)(=O)c2ccccc2C3=O)CC1	-2	x
CCOC(=O)c1c(CN(CC)CC)n(-c2ccccc2)c2ccc(O)cc12	8	1.8
O=C(O)CSCC(=O)N1CCCN(c2nc3ccc(Cl)cc3s2)CC1	x	-0.6
CS(=O)(=O)c1ncc(Cl)c(C(=O)Nc2cccc(Cl)c2)n1	5	x
Cc1c(CSc2nnc(C3CC3)n2-c2ccccc2)noc1-c1ccc(F)cc1	-2	x
Nc1cccc(-c2nn(-c3ccccc3)cc2CCC(=O)O)c1	19	1.4
CC(C)COC(=O)n1n[n+]([O-])c2ccccc21	15	2.0
O=C(CSc1oc(-c2ccco2)nc1S(=O)(=O)c1ccc(Cl)cc1)NC1CCCCC1	12	2.1
Cc1nn(C)c(C)c1S(=O)(=O)N(CC(=O)N1CCn2c1nc1ccccc12)c1ccc(C(C)C)cc1	-4	x
CCOc1cc2sc(N3CCC(C(=O)NCCCN4CCN(C)CC4)CC3)nc2cc1Br	8	x
O=S(=O)(c1ccc(Cl)nc1)N(Cc1ccccc1)Cc1ccccc1	-2	-2.0
CS(=O)(=O)Nc1ccc([N+](=O)[O-])cc1Oc1ccccc1	x	-1.1&1.1&0.3
C/C(=C\C(=O)c1ccc(C)cc1)N1CCOCC1	20	1.9
CCNC(=O)NC(=O)Cn1cc(C(F)(F)F)ccc1=O	-3	x
CO/N=C(\C(=O)N[C@@H]1C(=O)N2C(C(=O)O)=C(COC(C)=O)CS[C@H]12)c1csc(N)n1 (stereo in doubt)	x	2.5
CCc1cccc2c(=O)c(CN(C)C)c(C)[nH]c12	12	5.1
N#Cc1ccc(-c2cccs2)[nH]c1=S	12	5.2
CC1CCCCC12NC(=O)N(CCCCN1C(=O)c3ccccc3C1=O)C2=O (configuration not stated)	20	x
CCN1CCc2c(OCC(=O)N3CCC(Cc4ccccc4)CC3)cccc2C1=O	8	x
O=C(CCc1ccccc1)NN1CCOCC1	16	2.0
Cc1cccc(N(C)C(=O)Cc2noc3ccccc23)c1	-4	x
COc1ccc(NC(=O)CC2=C(c3ccccc3)CCC2=O)cc1	6	x
S=c1[nH]nc2n1CCCN2	-5	x
CCc1nnc(SCC(=O)NCc2ccc(C)cc2)c2cc3sccc3n12	0	0.2
COc1ccccc1NC(=O)C1c2ccccc2Oc2ccccc21	-5	3.0
C=CCN(CC=C)C(=O)Cc1ccc(Br)cc1	-1	-0.7
COc1cc(C(=O)OCC(=O)N2CCOCC2)ccc1OCC(=O)Nc1ccc(F)cc1	16	x
Cc1ccccc1Nc1nn2c(=O)c3ccc(C(=O)N4CCc5ccccc5C4)cc3nc2s1	-27	x
Cc1cc2ccccc2n1CCNS(C)(=O)=O	-5	x

5 entries from above, in CSV form:
Structure,Sa helicase inh,MgrA-DNA mod
Cc1cc2ccccc2n1CCNS(C)(=O)=O,-5,x
CCc1cccc2c(=O)c(CN(C)C)c(C)[nH]c12,12,5.1
N#Cc1ccc(-c2cccs2)[nH]c1=S,12,5.2
Cc1ccccc1Nc1nn2c(=O)c3ccc(C(=O)N4CCc5ccccc5C4)cc3nc2s1,-27,x
COc1cc(C(=O)OCC(=O)N2CCOCC2)ccc1OCC(=O)Nc1ccc(F)cc1,16,x

The list goes on:
SMILES	Sa helicase inh	MgrA-DNA mod
Cc1ccc(S(=O)(=O)N(C)c2c(C)ccc(S(=O)(=O)n3nc(C)cc3C)c2C)cc1	2	1.6
COc1cc(Br)c(C2C(C(=O)OCc3ccccc3)=C(C)NC3=C2C(=O)CCC3)cc1OC (configuration not stated)	x	-2.0
Cc1ccc(N2NC(=O)CC2=O)cc1C	19	3.8
Cc1nc2ccccc2n1C/C=C/c1ccccc1	9	-0.3
COCCCn1cnnc1SC(C)C(=O)Nc1ccc(S(=O)(=O)N2CCOCC2)cc1 (configuration not stated)	-5	x
Cc1ccc2c(c1)c(-c1ccccc1)nc1nnnn12	19	-3.6
O=C(CSc1nnnn1C1CC1)N(Cc1ccccc1)Cc1ccccc1	-10	x
O=C(O)CCNC(=O)Nc1ccccc1	x	-1.8
CNC(=O)c1cc(Cl)ccc1I	-1	x
CNC(=O)c1c(-c2ccccc2)c2cc(OC)ccc2n1CCN(C)C	-9	2.4
Cn1cc(-c2ccccc2C(N)=O)c(=O)c2ccccc21	x	-1.7
COc1ccc(-c2cc(N)n(C)n2)cc1	-2	0.9
CCCCCCCc1c(O)c2cccc3c2n(c1=O)CCC3	1	x
Cc1c([N+](=O)[O-])c([N+](=O)[O-])nn1CC(=O)Nc1cc(Oc2cccnc2)cc([N+](=O)[O-])c1	x	0.6
O=S(=O)(NCC1CCN(S(=O)(=O)c2ccccc2)CC1)c1cccs1	x	-0.9
NNC(=O)c1csc(N2CCOCC2)n1	2	x
CC(C)c1cccc(C(C)C)c1OCCCN1CCOCC1	-7	-1.9
Cc1ccc(NC(=O)CNCc2ccco2)cc1Cl	8	-2.7
O=C(OCC(=O)N1CCCC1)C1CCN(S(=O)(=O)c2cccs2)CC1	11	x
Cc1nc(CSc2nnc3scc(-c4ccccc4)n23)cs1	-18	1.1
COc1ccc(C2NC(=O)C(C#N)=C(S)N2c2ccccc2)cc1OC (configuration not stated)	17	-0.4
COc1ccc(-c2c(C)oc3cc(O)ccc3c2=O)cc1	8	x
CCCCC(C(=O)O)C(=O)O	x	-3.6
O=C(Nc1nnc(CCN2CCOCC2)s1)c1ccc(Cl)cc1	16	-1.4
N/C(=N/S(=O)(=O)c1cc(C(F)(F)F)cc(C(F)(F)F)c1)c1ccc(Cl)cc1	x	1.6
Cc1ccc(-c2nnc(SCc3ccc(C#N)cc3)o2)cc1	-14	x
CC(C)(C)c1ccc(-c2ncc(-c3cccc([N+](=O)[O-])c3)s2)cc1	x	1.5
CCn1c(=N)c(S(=O)(=O)c2ccccc2)cc2c(=O)n3ccccc3nc21	10	7.6
CCOC(=O)c1cn(C2CC(O)(O)C3OCC2O3)nc1N (configuration not stated) (tested in a mixture with another compound)	19	-1.0
CCC1(CC)Cc2ccccc2C(=C(C#N)C#N)N1	0	0.2
Cc1ccccc1C(=O)N1CCC(C(=O)N2CCCc3ccccc32)CC1	4	x
O=C(NCCSCc1ccco1)Nc1cc(Cl)cc(Cl)c1	x	0.3
CN1C(=O)C/C(=N\O)N(C)C1=O	29	x
CCn1c2ccccc2c2cc(N=C=S)ccc21	4	x
OC(CNCCNc1ccc(C(F)(F)F)cn1)Cn1ccc2ccccc21 (configuration not stated)	-20	x
CCC(C)(C)NC(=O)c1ccc2c(c1)OCCO2	0	-0.9
O=C(Nc1noc2c1COc1ccccc1-2)N1CCC(Cc2ccccc2)CC1	-4	x
O=C(Cn1c2ccccc2c2cn[nH]c(=O)c21)NCC1CCCO1 (configuration not stated)	-18	x
Cc1ccc(-c2noc(CN3CCN(c4ccccc4F)CC3)n2)cc1	-2	0.9
CC(C)CNS(=O)(=O)c1ccc(NC(=O)c2cccnc2)cc1	-8	-0.4
COc1ccccc1-n1nnnc1SCc1ccccc1	10	-1.1
Cc1ccc(N2Cc3ccccc3OC(C)C2=O)cc1 (configuration not stated)	10	x
O=C(CC1Nc2ccccc2NC1=O)NC1CCCCC1 (configuration not stated)	-21	x
CCc1nc2c3ccccc3ncn2n1	6	x
N#CC1(NC(=O)CN2CCN(c3ccccc3Cl)CC2)CCCC1	-12	x
Cc1cc(C)c2[nH]c(=O)c(CN(CCN3CCOCC3)C(=S)NCC3CCCO3)cc2c1 (configuration not stated)	13	-2.1
Cc1c(C(=O)NN)nc2ccccn12	-8	x
Cc1ccc(C2(O)C(=O)c3ccccc3C2=O)c(O)c1C	x	-0.9
O=C1NNS(=O)(=O)c2ccccc21	0	x
CN(Cc1nc2ccccc2n1CCc1ccccc1)S(=O)(=O)c1ccccc1	-17	x
CCN(CC)S(=O)(=O)c1ccc(NCCOC)c(C(=O)O)c1	-15	x
Cc1nnc(N2CCCC(C(=O)NC3CC3)C2)c2nn(-c3ccccc3)c(C)c12 (configuration not stated)	-23	x
CCOC(=O)c1csc(-c2cc(C)on2)n1	x	2.9
CCC(=O)NC(=S)Nc1cccc(Cl)c1N1CCOCC1	6	-1.9
CSC1=NCCCN1C(=O)c1c(-c2ccccc2)noc1C	x	-2.4
COc1ccc(NC(=O)CC(c2ccccc2)c2ccco2)cc1 (configuration not stated)	4	1.6
CCN(CC)C(=O)CC(c1ccccc1)c1ccco1 (configuration not stated)	15	6.9
Cc1ccc(Cn2c(=O)oc3ccccc32)cc1	20	x
CCC(C(=O)O)n1nnc(-c2ccsc2)n1 (configuration not stated)	0	x
Cc1ccc(-n2c(C)cc(=O)cc2C)c(C)c1	11	1.4

Further structures follow:
SMILES	Sa helicase inh	MgrA-DNA mod
Cc1ccc(Nc2nnc(-c3ccccc3)c3ccccc23)cc1	7	2.5
Cc1c(NC(=O)CCC(=O)O)c(=O)n(-c2ccccc2)n1C	x	-1.8
Cc1ccc(-c2csc(-c3ccccc3N)n2)cc1	10	-2.2
CCc1ccc(C(=O)Nn2cnc3ccccc3c2=O)cc1	-2	x
CCN(CC)C(=O)Oc1nnc(SC(C)C)n1-c1ccc(Cl)c(Cl)c1	x	-4.8
O=C(Oc1ccc(C=Nc2ccccc2Br)cc1)c1ccccn1	0	x
O=C(CCS(=O)(=O)c1ccc(F)cc1)N1CCCC1c1nc2ccccc2s1 (configuration not stated)	12	x
C=CCc1c(C)[nH]c2ccc(N)cc2c1=O	-1	-1.5
CN(c1ncnc2c1cnn2-c1ccccc1)C1CCCCC1	-6	x
Cc1ccc2cnn(CC(=O)NCCN3CCOCC3)c2c1	-26	x
CC1(C)CC(OC(=O)CC(=O)OC2CC(C)(C)NC(C)(C)C2)CC(C)(C)N1	17	x
COc1ccc(N(C(C)C(=O)N=Nc2c(O)[nH]c3ccccc23)S(C)(=O)=O)cc1 (configuration not stated)	16	0.7
O=C(Nc1ccccc1-c1nc2ccccc2s1)c1ccc([N+](=O)[O-])cc1	x	-0.1
CCCNC(=O)C1CCN(S(=O)(=O)c2ccccc2)CC1	7	4.2
COC(=O)C1=CN(Cc2ccc(C)cc2)C=C(C(=O)OC)C1c1ccc(C)s1	7	0.8
Cc1ccc(N2CCSC2c2ccco2)cc1 (configuration not stated)	-1	x
O=C(NCCN1CCOCC1)c1ccncc1	3	-2.6
Cc1nc2c(sc3nc4c(cc32)COC(C)(C)C4)c(=O)n1Cc1ccccc1	6	x
COC(=O)CSc1nnc(SC)n1C	x	-2.0
Cc1ccc(C(=O)NCCc2csc3nc(-c4cccc(C)c4)nn23)cc1	17	x
C=CCSc1ncnc2sc3c(c12)CCC(C)C3 (configuration not stated)	10	x
Cn1c(NC(=O)Cc2ccc(F)cc2)nc2ccccc21	7	-1.3
N=c1oc2ccc(Cl)cc2cc1C(N)=O	6	x
Nc1ccc2nc(SCc3ccc(F)cc3)sc2c1	-7	x
O=C(/C=C/c1ccc(F)cc1)/C=C/c1ccc(F)cc1	22	x
C(=N\[n+]1ccccc1)/c1ccccc1	8	1.9
S=C(NC1CC1)N1CCCN(Cc2cccc3ccccc23)CC1	x	1.4
O=Nc1c(O)[nH]c2ccccc12	x	-2.9
COc1ccc(NC(=O)C(C)N2CCN(C)CC2)cc1 (configuration not stated)	15	-2.2
COCC(=O)NCc1ccc2c(c1)cc(C)n2C	9	x
Cc1cnc2c(c1)C(=Nc1ccccc1)c1ccccc1-2	4	0.9
COc1ccc(C(=O)N2CCSC2=S)cc1OC	4	x
Cn1cccc1C(=O)Nc1ccc(S(=O)(=O)N2CCOCC2)cc1	22	x
Cc1cc(=O)c(C(=O)NCc2ccccc2CN2CCCC2)nn1-c1ccccc1	0	x
CCC1C(=O)CC(c2ccco2)NC1c1ccco1 (configuration not stated)	14	x

Screening data deposited in PubChem by ICCB-Longwood Screening Facility, Harvard Medical School.

An excerpt, so the mix of outcomes need not match the whole.
